Ecoli growth – E. coli growth inhibition. OD600 absorbance (no concentration beside the values). Escherichia coli growth, OD600, 23 h; hits give low values. hit rate 0.21% among 330,000;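 active means OD600 absorbance below the run mean of sample wells minus 3.6 SD, in any replicate, cut at about 0.56 in these data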;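 further: stock transfer was 300 nL into about 60 µL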
Starred values were filed as active, the others as inactive; & = joins results of further samples. Not all compounds are listed; rates above refer to the full screens.

SMILES	Ecoli growth
COc1ccc(NC(=O)C2CC=CC3CCN(Cc4ccccc4)C(=O)C32)cc1 (stereo not drawn)	0.701
CCC(C)C(C(=O)N1CCN(C(=O)OC(C)(C)C)CC1)n1cc(C(Cc2ccc(O)cc2)NC(=O)OC(C)(C)C)nn1 (stereo not drawn)	0.714
CC1NC(=O)[C@@]2(C)C(c3ccccc3)C3COc4ccccc4C3N2C1=O (stereo partly drawn)	0.732&0.66&0.637&0.709
O=S(=O)(C=Cc1ccccc1)N1CCN(c2nc(-c3cccnc3)nc3ccccc23)CC1	0.738
COC(=O)C1=C(C)N(Cc2ccccc2)C(=NCc2ccc(OC)cc2)NC1c1cccc(F)c1 (stereo not drawn)	0.697
O=C1C=C(c2cc(C(F)(F)F)cc(C(F)(F)F)c2)CC(c2ccc(Cl)cc2)C1 (stereo not drawn)	0.635
CCC1(CC)C(=O)C2=C3C(CC(C(=O)OC)CC(C(=O)OC)C31)n1c(=O)n(-c3ccccc3)c(=O)n1C2C (stereo not drawn)	0.685
CN(C)C(CO)c1nnc(C(CC(=O)O)NC(=O)C2CCNCC2)o1 (stereo not drawn)	0.69
CC(C)C(CN1CCCC1CN1C(N)=NCC1Cc1ccccc1)N1CC(Cc2ccccc2)N(CCc2ccc(Cl)c(Cl)c2)C1=N (stereo not drawn)	0.0465*
CC(=O)OCC(=O)[C@@]1(O)C(C)CC2C3CCC4=CC(=O)C=C[C@]4(C)[C@@]3(F)C(O)C[C@@]21C (stereo partly drawn)	0.672
CCC(C)C(NC(=O)C1CCN(C(=O)C(NS(=O)(=O)c2ccc(C)cc2)C(C)C)CC1)C(=O)O (stereo not drawn)	0.654
O=[N+]([O-])c1cccc(CN2C(Cc3ccccc3)COCCS2(=O)=O)c1 (stereo not drawn)	0.689
COC(=O)[C@]1(C)NC(c2ccc(-c3ccc(Cl)c(Cl)c3)cc2)C2C(=O)N(C)C(=O)C21 (stereo partly drawn)	0.714
COc1cc(CCCN2C(=S)NCC2CC2CCCCC2)cc(OC)c1OC (stereo not drawn)	0.661
COc1ccc(C=C(C#N)C(=O)Nc2cccc([N+](=O)[O-])c2)cc1C(=O)O	0.703
CC(C)(C)OC(=O)C(Cc1ccccc1)NC(=O)c1nc[nH]c1C(=O)NCc1ccccc1 (stereo not drawn)	0.712
O=C(NCc1ccccc1)C1=CC(c2ccc(C(F)(F)F)cc2)CC(OCCCCO)O1 (stereo not drawn)	0.649
O=C(NC1CC1)C1=CC(c2csc3ccccc23)CC(OCCCCO)O1 (stereo not drawn)	0.657&0.628
CC(CC#N)CN1CCC(C(C)(C)C)CCC1=O (stereo not drawn)	0.672
COC(=O)[C@]1(CC(C)C)NC(c2ccc(-c3cccc(Cl)c3)cc2)C2C(=O)N(C)C(=O)C21 (stereo partly drawn)	0.739
COc1ccc(S(=O)(=O)N(C)CC2Oc3ccc(NC(=O)C4CC4)cc3C(=O)N(C(C)CO)CC2C)cc1 (stereo not drawn)	0.701
CC(C)(C)OC(=O)CC1CC=CCC(CC(=O)NCCO)C(=O)NCCOC1=O (stereo not drawn)	0.647&0.717&0.685
COC(=O)C1=C(C)N(Cc2ccccc2)C(=S)NC1c1cccc(C(F)(F)F)c1 (stereo not drawn)	0.706
C#CCOCCOCCOCCNc1nc(N2CCN(C(=O)CCCCCCCCCCNC(=O)C(CO)n3cc(CCCSC)nn3)CC2)nc(N2CCN(C(=O)CCCCCCCCCCNC(=O)C(CCC(=O)O)n3cc(CCCCCN)nn3)CC2)n1 (stereo not drawn)	0.672
CCCCC=CC(NC(=O)c1ccc(C(=O)OC)cc1)c1ccccc1 (stereo not drawn)	0.713
O=C(O)C1=CC(c2coc3ccccc3c2=O)CC(OCCCCO)O1 (stereo not drawn)	0.669&0.709
O=C(C(Cc1ccc(O)cc1)n1cc(CCO)nn1)N1CCNCC1 (stereo not drawn)	0.63
COCCn1c(C(=O)N2CCCC2)cc2c1CC1CN(C(=O)c3ccccc3)[C@@](Cc3ccc(F)cc3)(C(=O)OC)C21 (stereo partly drawn)	0.622
CCN1CC2C3C(=O)N(C)C(=O)C3[C@](C)(C1=O)N2C(=O)c1ccc(Cl)cc1 (stereo partly drawn)	0.685
CCN1C(=O)C2C(c3ccc(-c4ccc(OC)cc4)c(OC)c3)N3CCC[C@@]3(C(=O)OC)C2C1=O (stereo partly drawn)	0.694
CCCCN1CC(=O)N2C(c3ccc(OC)cc3)C3C(=O)N(CC)C(=O)C3[C@]2(Cc2ccccc2)C1=O (stereo partly drawn)	0.72
CCN1C(=NCC(C)C)NC(c2cccc(F)c2)C(C(=O)OC)=C1C (stereo not drawn)	0.696
FC(F)(F)c1ccc(CN2CC3C(c4ccccc4)C4(c5cccnc5)CC3(C4)C2c2ccccc2)cc1 (stereo not drawn)	0.7
CC(=O)n1cc(C2C=C(C(=O)N3CCN(Cc4ccc5c(c4)OCO5)CC3)OC(OCCCCO)C2)c2ccccc21 (stereo not drawn)	0.68
CN(C)C(CO)c1nnc(C(CCC(=O)O)NC(=O)C2CCNCC2)o1 (stereo not drawn)	0.619
CC#CCN1c2ccccc2[C@]23CC(C(=O)OC)N(C(=O)c4ccc(Br)cc4)C2=NC(C(=O)OC)=C(C(=O)OC)C13 (stereo partly drawn)	0.677
CC(C)C(C(=O)N1CCN(C(=O)OC(C)(C)C)CC1)n1cc(-c2cn(C(C)C(=O)N3CCN(C(=O)OC(C)(C)C)CC3)nn2)nn1 (stereo not drawn)	0.695
COc1ccc(C=C(C#N)C(=O)Nc2ccc(C)cc2C)cc1C(=O)O	0.706
NC(=O)C1=CC(c2csc3ccccc23)CC(OCCCCO)O1 (stereo not drawn)	0.645
COc1ccc(C2CC=C(C(=O)O)C(c3ccc(F)cc3)N2S(=O)(=O)c2ccccc2C)cc1 (stereo not drawn)	0.677
CC(NC(=O)c1nc[nH]c1C(=O)N1CCc2ccccc2C1)c1ccccc1 (stereo not drawn)	0.637&0.676
COc1ccc(C2CC(=O)C=C(c3ccc(OC)nc3)C2)cc1 (stereo not drawn)	0.674
Cc1ccc(CN2Cc3cccc4c3C(CC2=O)C(O)C(O)C4)cc1 (stereo not drawn)	0.685
O=C(C(=CO)N=Nc1ccccc1Cl)c1ccccc1	0.652
COC(=O)C1=C(C)N(Cc2ccccc2)C(=NCc2ccccc2)NC1c1ccccc1 (stereo not drawn)	0.667
O=C1NCC(c2ccccc2)OC(=O)C(Cc2ccc(F)cc2)CC=CCC1CC(=O)N(CCO)Cc1ccccc1 (stereo not drawn)	0.721&0.653&0.725&0.725&0.699&0.707
O=C1C(=Cc2cccnc2)Cc2ccc(Cl)cc21	0.636
CCOC1OC(C(=O)N2CCN(Cc3ccccc3)CC2)=CC(c2ccc(Br)cc2)C1CCCO (stereo not drawn)	0.665
COc1cc(C=CC(=O)O)cc(S(=O)(=O)NCCO)c1OC	0.703
NC(=O)C1CC2(CC(c3cccc(NC(=O)COc4ccc(Cl)cc4)c3)=NO2)CN1C(=O)c1ccc(Cl)cc1 (stereo not drawn)	0.681
O=S1(=O)CCOCC(CC2CCCCC2)N1Cc1cccc(F)c1 (stereo not drawn)	0.686
C#CCOCCOCCOCCNc1nc(N2CCN(C(=O)CCCCCCCCCCNC(=O)Cn3cc(CC(C)O)nn3)CC2)nc(N2CCN(C(=O)CCCCCCCCCCNC(=O)C(CCCCN)n3cc(CCCC(=O)O)nn3)CC2)n1 (stereo not drawn)	0.669
NC1=NCC(Cc2ccc(O)cc2)N1CCc1cccc(F)c1 (stereo not drawn)	0.698&0.676
CCN1CC2C3C(=O)N(Cc4ccccc4)C(=O)C3[C@](Cc3ccccc3)(C1=O)N2C(=O)c1ccc(Cl)cc1 (stereo partly drawn)	0.702
COc1ccc(-c2nn(-c3ccccc3)cc2C=CC(=O)N2CCOCC2)cc1[N+](=O)[O-]	0.721
C#CCNC(=O)C1=CC(c2ccc(Br)cc2)CC(OCCCCO)O1 (stereo not drawn)	0.714&0.729
C#CCOCCOCCOCCNc1nc(N2CCOCC2)nc(N2CCN(C(=O)C(Cc3ccc(O)cc3)n3cc(C(N)C(C)CC)nn3)CC2)n1 (stereo not drawn)	0.718
NC(=NOS(=O)(=O)c1ccccc1)c1ccncc1	0.703
COC(=O)C1=C(C(=O)OC)C2N(C)c3ccc(OC)cc3[C@@]23CC(C(=O)OC)N(C(=O)c2ccc(Br)cc2)C3=N1 (stereo partly drawn)	0.693
COC(=O)[C@@]1(Cc2ccccc2)C=CC(C)N1C(C)=O (stereo partly drawn)	0.676
(listing goes on)
SMILES	Ecoli growth
C=CCC(CC(=O)NCCO)C(=O)NCC(OC(=O)C(CC=C)Cc1ccc(F)cc1)c1ccccc1 (stereo not drawn)	0.65&0.711&0.699
CC(NC(=O)c1nc[nH]c1C(=O)NC(c1ccccc1)c1ccccc1)C(=O)OC(C)(C)C (stereo not drawn)	0.702
CCN1C(=O)C2C(c3ccc(-c4ccc(F)cc4)cc3)N[C@@](Cc3ccccc3)(C(=O)OC)C2C1=O (stereo partly drawn)	0.75
CN(C)c1ccc(N2C(CC(=O)O)c3cc(C(F)(F)F)ccc3S2(=O)=O)cc1 (stereo not drawn)	0.701
CC1CCN(C2=NC(=O)C(=Cc3cn(-c4ccccc4)nc3-c3cccc(S(=O)(=O)N(C)C)c3)S2)CC1	0.727
CN1C(=O)CCC1c1cccnc1 (stereo not drawn)	0.714
Cc1cc2c(c(CO)c1CCO)C(=O)C(C)C2O (stereo not drawn)	0.709
O=C(C1=CC(c2coc3ccccc3c2=O)CC(OCc2ccc(CO)cc2)O1)N1CCN(Cc2ccc3c(c2)OCO3)CC1 (stereo not drawn)	0.677&0.656
CCOC(=O)C1C2COc3ccc(Cl)cc3C2N2C(=O)CN(Cc3ccco3)C(=O)[C@@]12C (stereo partly drawn)	0.674
CC#CCN1c2ccccc2[C@]23CC(C(=O)OC)N(C(=O)C4CCC4)C2=NC(C(=O)OC)=C(C(=O)OC)C13 (stereo partly drawn)	0.7
CC1CN(C(C)CO)C(=O)c2cc(NC(=O)Cc3ccccc3)ccc2OC1CN(C)C(=O)Nc1ccc(C(F)(F)F)cc1 (stereo not drawn)	0.664
Cc1nn(-c2ccccc2)c(C)c1C=CC(=O)OC(C)C(N)=O (stereo not drawn)	0.705
O=C1c2ccccc2C(=O)N1CCCc1cn(CC2CCC(C3CCC(Cn4cc(CCCN5C(=O)c6ccccc6C5=O)nn4)O3)O2)nn1 (stereo not drawn)	0.669
O=C(NC1CC1)C1=CC(c2ccc(C(F)(F)F)cc2)CC(OCc2ccc(CO)cc2)O1 (stereo not drawn)	0.712&0.65
O=C(Nc1ccc2ccccc2c1)C1CC1C(NP(=O)(c1ccccc1)c1ccccc1)c1ccccc1 (stereo not drawn)	0.685
COC(=O)[C@@]1(Cc2ccc(F)cc2)C2c3cc(C(=O)N(C)C)n(CCSCCO)c3CC2CN1C(=O)c1ccccc1 (stereo partly drawn)	0.622
CSc1ccc(C=CC(=O)c2ccc(NC(C)=O)cc2)cc1	0.694
CC(NC(=O)C(C#N)=Cc1ccc(Cl)c([N+](=O)[O-])c1)c1ccccc1 (stereo not drawn)	0.647
CCC(C)C(C(=O)N1CCNCC1)n1cc(C(N)Cc2ccc(O)cc2)nn1 (stereo not drawn)	0.691
CCN1C(=O)NC(c2cccc(C(F)(F)F)c2)C(C(=O)OC)=C1C (stereo not drawn)	0.707
CC(=O)NC(=Cc1cccnc1)C(=O)Nc1ccc(Cl)cc1	0.635
CC1COC(=O)C(Cc2ccc(F)cc2)CCC=CCC(CC(=O)NC(CO)Cc2ccccc2)C(=O)N1 (stereo not drawn)	0.706&0.695
CCCCN1CC(=O)N2C3c4cc(Br)ccc4OCC3C(C(=O)OCC)[C@]2(C)C1=O (stereo partly drawn)	0.681
CCN1C(=O)C2C(c3ccc(-c4ccc(C(C)=O)cc4)cc3)N3CCCC[C@@]3(C(=O)OC)C2C1=O (stereo partly drawn)	0.67&0.715
C=CCC(CC(=O)N(CCO)Cc1ccccc1)C(=O)NCC(OC(=O)C(CC=C)Cc1ccc(F)cc1)c1ccccc1 (stereo not drawn)	0.635&0.758&0.736&0.717
CC#CCN1c2ccccc2[C@]23CC(C(=O)OC)N(C(=O)c4ccco4)C2=NC(C(=O)OC)=C(C(=O)OC)C13 (stereo partly drawn)	0.717
Cc1noc(C)c1NC(=O)Nc1cccc2c1OC(CN(C)S(C)(=O)=O)C(C)CN(C(C)CO)C2=O (stereo not drawn)	0.709
CC(C)CC(NC(=O)c1[nH]cnc1C(=O)Nc1ccc(CNC(=O)OC(C)(C)C)cc1)C(=O)OC(C)(C)C (stereo not drawn)	0.664
Cc1ccccc1CN1C2c3ccccc3CC2OCCS1(=O)=O (stereo not drawn)	0.699
